Compound activity deposited in PubChem by Broad Institute.
RanGTP-Impb inh: inhibitors of RanGTP-importin-beta interaction, primary screen, biochemical, FRET, CFP-Ran, YFP-importin-beta, homogeneous; cell-free CFP-Ran/YFP-importin-beta FRET ratio; inhibition, % (test concentration not listed); hit rate 1.1% among 300,000; AID 2216;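 active = most replicates above 15%; inconclusive = exactly half above 15%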;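 also: 0% = DMSO wells and 100% = Ran loaded with GDP instead of GTP; wells of about 40 µL received 100 nL stock; the first replicate is given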
Calb FLC: C. albicans growth modulation with fluconazole | C. albicans CaCi-2 (fluconazole-resistant clinical isolate) + fluconazole, Alamar Blue growth, 48 h | growth inhibition, % (test concentration not listed) | hit rate 0.57% among 300,000 | AID 1979;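 active = most replicates above 75%; inconclusive = exactly half above 75%; inactive = most below 75%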;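 also: all wells also contain fluconazole at 8 µg/ml as a sub-toxic cotreatment; 0% = median of DMSO wells and 100% = median of geldanamycin control wells; wells of about 8 µL received 7.5 nL stock; the first replicate is given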
T cruzi inh: blocks replication of Trypanosoma cruzi | hit rate 1.4% among 300,000 | T. cruzi beta-gal in NIH3T3, luminescence, 90 h | inhibition, % (test concentration not listed);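 active = mean inhibition across valid replicates above about 55%, limit read from the data; inconclusive = mean below that limit but half or more replicates reach it; inactive = mean below it, under half of replicates reach it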;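 also: signal also drops with host cell toxicity which is not excluded here; 0% = plate median of DMSO wells and 100% = zero luminescence signal; higher percent means less beta-gal luminescence so fewer parasites; stock transfer was 50 nL into about 50 µL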
FGF22 binding: FGF22 (human) thermal shift binding; Q9HCT0; recombinant FGF22 thermal shift, SYPRO orange fluorescence; percent of sucrose octasulfate shift, DMSO zero; calls only at 9.99 µM; hit rate 1.5% among 340,000;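 active = melting point raised past a set limit in the mean and every replicate; inconclusive = no clear call; three in four hits are not shown here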
Target sequence (Q9HCT0 whole entry, looked up): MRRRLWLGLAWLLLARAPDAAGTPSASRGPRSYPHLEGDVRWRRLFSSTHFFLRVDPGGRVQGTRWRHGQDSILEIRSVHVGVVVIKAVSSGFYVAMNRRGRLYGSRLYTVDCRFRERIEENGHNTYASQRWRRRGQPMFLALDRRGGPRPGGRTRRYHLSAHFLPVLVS
Beta cell apopt: beta cell apoptosis inhibition; INS-1E cytokine-induced death, ATP luminescence, 48 h; percent of positive-control rescue, neutral wells zero; protection from apoptosis, % (test concentration not listed); hit rate 0.8% among 300,000; AID 435005;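 active = all replicates at 75% or more, or half of them and the mean; inconclusive = half reach 75% but not the mean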;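 also: 0% = cytokine-treated negative control wells and 100% = positive control rescue; higher means more ATP so stronger rescue from cytokine killing; wells of about 40 µL received 100 nL stock; the first replicate is given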
MLL AF4-AF9 inh: inhibitors of human MLL-AF4/AF9 interaction | P42568 | AlphaScreen, biotin-AF4 peptide binding to FLAG-AF9 | inhibition, % at 10 µM | hit rate 0.47% among 350,000;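 active = every replicate reaching a set inhibition limit, whatever the replicate mean, cut at about 25% in these data; inconclusive = mean inhibition reaches that limit but some replicates miss it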;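 also: 0% = plate neutral control median and 100% = total signal loss; the record names both 10 and 1 µM as test concentration; the first replicate is given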
Target sequence (P42568 whole entry, looked up): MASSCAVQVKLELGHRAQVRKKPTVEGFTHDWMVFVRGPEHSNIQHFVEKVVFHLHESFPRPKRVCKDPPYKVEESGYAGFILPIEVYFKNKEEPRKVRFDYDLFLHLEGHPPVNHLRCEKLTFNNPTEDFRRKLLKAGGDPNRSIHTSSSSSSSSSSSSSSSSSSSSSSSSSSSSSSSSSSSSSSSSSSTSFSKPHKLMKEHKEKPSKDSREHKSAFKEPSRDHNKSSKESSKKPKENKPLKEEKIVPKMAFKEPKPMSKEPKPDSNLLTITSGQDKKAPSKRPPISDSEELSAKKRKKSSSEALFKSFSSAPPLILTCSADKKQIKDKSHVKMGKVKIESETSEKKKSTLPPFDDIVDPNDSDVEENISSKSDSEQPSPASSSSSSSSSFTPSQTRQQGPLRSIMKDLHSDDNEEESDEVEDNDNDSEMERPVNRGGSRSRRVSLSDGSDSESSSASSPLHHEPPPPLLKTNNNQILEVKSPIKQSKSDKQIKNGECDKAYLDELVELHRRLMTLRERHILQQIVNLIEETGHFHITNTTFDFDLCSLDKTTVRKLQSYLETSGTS
Ecoli rRNA inh: selective bacterial rRNA inhibition in E. coli; E. coli WT GFP vs humanized-ribosome RFP mutants, fluorescence, 24 h; hits give low values; DMSO median 0, no signal -100; GFP signal change (wild-type ribosome), % (test concentration not listed); hit rate 1.6% among 350,000;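 active = significant combined selectivity score with lowered wild-type GFP, culture density cut under 30%, mutant RFP and density less affected; inactive = any of these conditions unmet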; also: one replicate is shown; some compounds called inactive have numbers as strong as hits
ALR inh: inhibitors of human sulfhydryl oxidase ALR; P55789; purified ALR, DTT oxidation, H2O2 HRP-luminol luminescence; inhibition, % (test concentration not listed); hit rate 3.8% among 290,000;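 active = mean and each replicate at 75% or more; inconclusive = only one of the two met; inactive = neither met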;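 also: stock transfer was 7.5 nL into about 7.5 µL; 0% = neutral wells and 100% = wells with inactivated enzyme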
Target sequence (P55789 whole entry, looked up): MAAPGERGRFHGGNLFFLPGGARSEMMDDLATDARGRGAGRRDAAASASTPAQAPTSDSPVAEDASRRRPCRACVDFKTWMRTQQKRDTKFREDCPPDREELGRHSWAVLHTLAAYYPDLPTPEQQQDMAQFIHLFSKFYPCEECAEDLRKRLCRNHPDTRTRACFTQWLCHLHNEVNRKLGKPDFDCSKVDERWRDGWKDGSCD
Ecoli rRNA inh OD600: further read-out of Ecoli rRNA inh, marked with its call; OD600 change, %; measured here: OD600 growth;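 optical density of the mix in the first replicate; 0 = DMSO median and -100 = no signal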
Ecoli rRNA inh RFP: recorded beside Ecoli rRNA inh, whose call it bears; RFP signal change, %; measured here: RFP humanized mutant strains;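 first replicate; 0 = DMSO median and -100 = no signal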
* hit, by the source's call; i = inactive; ? = inconclusive; nt = not tested or not shown. Not all compounds are listed, so the mix of outcomes need not match the whole.

(1) Cc1cccc(CS(=O)(=O)Cc2ccc(C(=O)NC3CCCC3)o2)c1
(2) OCC[C@H]1C[C@H](O)[C@@H](O)[C@]2(OCc3ccccc32)O1
(3) Cc1ccc(C(=O)NNC(=O)c2ccc(NS(=O)(=O)c3cccs3)cc2)o1
(4) Cc1cccc(C(=O)OCC(=O)NCc2cccs2)c1
(5) c1ccc(-c2nc(N3CCOCC3)cc(N3CCOCC3)n2)cc1
(6) Cc1cccc(NC(=S)N(Cc2cccc(Br)c2)CC2CCC(C(=O)O)CC2)c1 (stereo not drawn)
(7) Cc1cccc(CSc2nn3c(=O)c(C)nnc3s2)c1
(8) CC1CC2(CCCCC2)Nc2ccc3ccccc3c21 (stereo not drawn)
(9) CCC(CC)C1C(C#N)=C(N)Oc2cc(C)oc(=O)c21 (stereo not drawn)
(10) O=C(NCc1cccc(C(F)(F)F)c1)C1CC(c2ccccc2C(F)(F)F)=NO1 (stereo not drawn)

Assay by compound	1	2	3	4	5	6	7	8	9	10
RanGTP-Impb inh	?	nt	nt	-3.4	1.0	-2.9	5.5	-0.7	0.6	-5.1
Calb FLC	-5.3	nt	nt	3.7	2.3	9.7	-3.9	nt	20.7	6.9
T cruzi inh	2.8	nt	nt	-0.2	15.1	4.3	-2.3	-0.4	-3.7	-11.6
FGF22 binding	i	i	i	i	nt	i	nt	nt	i	i
Beta cell apopt	-1.6	-7.4	-2.9	0.2	-4.9	-9.6	0.0	5.8	3.0	1.5
MLL AF4-AF9 inh	1.8	-11.6	-2.3	-0.4	-1.1	-2.7	nt	nt	1.8	-9.1
Ecoli rRNA inh	3.8	4.0	-10.3	-4.8	nt	-15.1	nt	nt	-12.8	-34.3
Ecoli rRNA inh OD600	6.2	4.0	-14.1	-11.3	nt	-6.2	nt	nt	-10.8	-60.4
Ecoli rRNA inh RFP	0.6	8.2	7.4	0.4	nt	-9.6	nt	nt	8.5	4.5
ALR inh	-2.8	-1.1	13.3	0.2	-0.2	31.8	98.7*	-4.5	19.4	nt

(11) Cc1ccc(CNC(=O)Cc2cccs2)cc1
(12) CCOC(=O)N1CCN(C(=O)/C=C/c2ccc(OC)c(OC)c2)CC1
(13) Cc1ccc(-c2[nH]nc3c2C(c2ccoc2)C(C#N)=C(N)O3)cc1C (stereo not drawn)
(14) Cc1cccc(NC(=O)c2cccnc2)c1C
(15) CCn1nnc(NC(=O)C(c2ccccc2)c2ccccc2)n1
(16) O=C(Nc1ccc(N2CCN(c3ccc(C(F)(F)F)cn3)CC2)nc1)c1cccs1
(17) COc1ccc(/C=C/c2cccc[n+]2C)c(O)c1
(18) CCOC(=O)CSc1cc(=O)n(CC)c2ccccc12
(19) CCCC(=O)Nc1nn(C)c2nc3ccc(C)cc3cc12
(20) Cn1ncc(C#N)c1NC(=O)C1CC(c2c(F)cccc2Cl)=NO1 (stereo not drawn)

Assay by compound	11	12	13	14	15	16	17	18	19	20
RanGTP-Impb inh	-4.2	-2.1	6.6	-3.9	-1.5	-0.9	?	-2.9	?	1.3
Calb FLC	-23.7	34.9	5.1	-4.4	39.4	-6.6	-5.9	-6.5	7.0	2.2
T cruzi inh	-2.8	-6.3	-35.8	-8.8	-3.2	4.0	27.9	-3.3	2.7	-1.9
FGF22 binding	nt	i	nt	i	i	i	i	nt	i	nt
Beta cell apopt	-4.4	-1.5	-13.0	-7.5	-1.0	-5.5	nt	-2.5	1.0	nt
MLL AF4-AF9 inh	nt	1.8	nt	1.5	-2.4	-0.1	-14.8	nt	-0.8	nt
Ecoli rRNA inh	nt	-3.2	nt	24.6	6.5	nt	6.6	nt	8.9	nt
Ecoli rRNA inh OD600	nt	-0.6	nt	16.0	-0.9	nt	1.2	nt	11.6	nt
Ecoli rRNA inh RFP	nt	-2.7	nt	2.3	-0.3	nt	2.2	nt	-2.0	nt
ALR inh	-2.9	-5.7	56.3	0.9	18.2	-13.1	nt	nt	-5.9	-4.5

Whole records from above. Order of values: RanGTP-Impb inh	Calb FLC	T cruzi inh	FGF22 binding	Beta cell apopt	MLL AF4-AF9 inh	Ecoli rRNA inh	Ecoli rRNA inh OD600	Ecoli rRNA inh RFP	ALR inh
`CCOC(=O)N1CCN(C(=O)/C=C/c2ccc(OC)c(OC)c2)CC1` across the screens: -2.1	34.9	-6.3	i	-1.5	1.8	-3.2	-0.6	-2.7	-5.7
`Cc1ccc(-c2[nH]nc3c2C(c2ccoc2)C(C#N)=C(N)O3)cc1C` (stereo not drawn) across the screens: 6.6	5.1	-35.8	nt	-13.0	nt	nt	nt	nt	56.3

More results:
(21) COC(=O)c1c(NC(=O)C2Cc3ccccc3C(=O)O2)sc2c1CCCC2 (stereo not drawn)
(22) CCCCn1c(=O)[nH]c(=O)c2c1nc(-c1ccc3ccccc3c1)n2CC
(23) O=C(Nc1cccc(Cl)c1)N1N=CCC1c1ccccc1 (stereo not drawn)
(24) O=C1Nc2ccccc2/C1=C/c1ccccc1Cl
(25) CCOC(=O)N1CCN(c2cc(C)c([N+](=O)[O-])cc2F)CC1
(26) CCC(CC)C(=O)Nc1nnc(S(=O)(=O)N2c3ccccc3CC2C)s1 (stereo not drawn)
(27) O=C(O)Cc1sc(Nc2cccc3ccccc23)nc1-c1ccc(F)cc1
(28) COc1cc(OC)c2ccc(=O)oc2c1C(CC(=O)N1CCOCC1)c1ccc(N(C)C)cc1 (stereo not drawn)
(29) CN(Cc1ccccc1)C(=O)CSc1nc2ccccc2c(=O)n1Cc1ccco1
(30) CCOC(=O)C1=C(C)NC(=O)NC1c1ccccc1Cl (stereo not drawn)

Assay by compound	21	22	23	24	25	26	27	28	29	30
RanGTP-Impb inh	3.3	-2.5	2.8	4.0	7.4	1.4	?	-1.2	-2.3	-2.6
Calb FLC	44.7	0.1	10.1	-3.4	-26.3	-1.1	9.9	4.0	-8.7	4.1
T cruzi inh	31.4	25.5	12.6	-0.2	-28.3	14.1	8.6	-23.2	42.4	1.5
FGF22 binding	i	i	i	i	i	i	i	nt	nt	nt
Beta cell apopt	11.7	-1.8	-2.7	13.6	nt	9.3	-0.9	-1.2	-1.6	-4.9
MLL AF4-AF9 inh	-8.3	-0.7	-3.3	-0.3	2.7	-9.2	0.7	nt	nt	nt
Ecoli rRNA inh	19.6	nt	-26.8*	-56.0	9.1	-3.9	-7.0	nt	nt	nt
Ecoli rRNA inh OD600	8.1	nt	-16.4*	-51.1	5.0	1.2	-2.5	nt	nt	nt
Ecoli rRNA inh RFP	2.7	nt	-4.6*	-12.7	1.0	-3.1	4.4	nt	nt	nt
ALR inh	-14.0	-5.2	-4.8	nt	-4.3	-0.6	-18.3	98.0*	1.4	-11.6

(31) COc1ccccc1/C=C/CN1CCOCC1
(32) COc1cccc(NC(=O)C2CCN(c3cnccn3)CC2)c1
(33) Cn1c(=O)c2c(nc(N3CCc4ccccc4C3)n2Cc2ccc(Br)cc2)n(C)c1=O
(34) c1cncc(-c2nnc(-c3cccs3)o2)c1
(35) COc1ccc(S(=O)(=O)N2CCCC2C(=O)Nc2ccc(C)cc2)cc1 (stereo not drawn)
(36) COc1ccc(CCC2CCNCC2)cc1
(37) O=S1(=O)C[C@@H](O)[C@@H](Nc2ccc(Cl)cc2)C1
(38) CC(=O)c1cc(C#N)c(SCC(=O)Nc2nccs2)nc1C
(39) Cc1cc(C)nc(N/N=C2/CCCC/C2=C\c2ccccc2)n1
(40) N#CCCN1CCN(C2=NC(=O)C(=C3CCCCC3)S2)CC1

Assay by compound	31	32	33	34	35	36	37	38	39	40
RanGTP-Impb inh	-5.6	-0.9	7.2	?	0.0	-4.3	-2.2	1.3	-3.0	2.2
Calb FLC	-3.1	-4.3	-0.9	5.0	-3.6	-4.9	2.8	-20.4	-1.8	10.7
T cruzi inh	3.3	5.3	12.0	0.8	0.6	19.8	9.7	7.9	70.1*	-0.5
FGF22 binding	i	i	nt	nt	nt	i	nt	i	i	nt
Beta cell apopt	-4.0	-5.8	-0.7	-9.0	2.2	-1.9	-12.6	6.7	77.8*	3.8
MLL AF4-AF9 inh	2.3	-1.1	nt	nt	nt	5.4	nt	-1.9	3.9	nt
Ecoli rRNA inh	15.1	-1.9	nt	nt	nt	3.6	nt	14.7	-15.4	18.9
Ecoli rRNA inh OD600	9.7	1.4	nt	nt	nt	8.7	nt	21.5	-20.7	9.6
Ecoli rRNA inh RFP	-1.0	-0.6	nt	nt	nt	-1.3	nt	0.6	9.1	1.9
ALR inh	-7.6	-4.3	-35.6	0.5	-27.3	nt	97.5*	9.0	28.9	-29.0

Looked up one by one from the entries so far:
(31) COc1ccccc1/C=C/CN1CCOCC1
(32) COc1cccc(NC(=O)C2CCN(c3cnccn3)CC2)c1
(36) COc1ccc(CCC2CCNCC2)cc1
(35) COc1ccc(S(=O)(=O)N2CCCC2C(=O)Nc2ccc(C)cc2)cc1 (stereo not drawn)
(39) Cc1cc(C)nc(N/N=C2/CCCC/C2=C\c2ccccc2)n1

Assay by compound	31	32	36	35	39
RanGTP-Impb inh	-5.6	-0.9	-4.3	0.0	-3.0
Calb FLC	-3.1	-4.3	-4.9	-3.6	-1.8
T cruzi inh	3.3	5.3	19.8	0.6	70.1*
FGF22 binding	i	i	i	nt	i
Beta cell apopt	-4.0	-5.8	-1.9	2.2	77.8*
MLL AF4-AF9 inh	2.3	-1.1	5.4	nt	3.9
Ecoli rRNA inh	15.1	-1.9	3.6	nt	-15.4
Ecoli rRNA inh OD600	9.7	1.4	8.7	nt	-20.7
Ecoli rRNA inh RFP	-1.0	-0.6	-1.3	nt	9.1
ALR inh	-7.6	-4.3	nt	-27.3	28.9

Following part.
(41) CN(C)S(=O)(=O)c1cccc(C(=O)Nc2ccc(N3CCOCC3)cc2)c1
(42) O=C(Cn1cnc2scc(-c3cccc([N+](=O)[O-])c3)c2c1=O)NCc1ccco1
(43) Cc1ccc2c(c1)C(O)(CC(=O)c1ccc(C)s1)C(=O)N2 (stereo not drawn)
(44) Cc1csc(=Nc2ccccc2)n1Cc1ccco1
(45) O=[N+]([O-])c1ccc(/C=N/N/C(=N/c2ccccn2)c2ccccn2)cc1
(46) O=C(NCCCN1CCCCCC1)c1cc2c(=O)oc3ccccc3c2s1
(47) O=C(C1CCN(S(=O)(=O)c2ccc(Br)s2)CC1)N1CCCCC1
(48) CCOc1ccccc1-n1cnc2cc(C(=O)NCc3ccco3)ccc21

Assay by compound	41	42	43	44	45	46	47	48
RanGTP-Impb inh	-0.1	-1.4	-4.2	4.0	-1.2	4.8	1.2	1.1
Calb FLC	-6.1	-3.1	-19.9	-4.8	17.0	-11.2	-2.0	-4.6
T cruzi inh	-6.9	21.7	-5.6	-6.2	-13.7	12.3	7.2	-6.5
FGF22 binding	i	i	nt	i	i	i	i	nt
Beta cell apopt	-0.1	2.5	-9.8	-2.4	0.0	-8.1	5.7	-2.8
MLL AF4-AF9 inh	6.1	-0.6	nt	18.0	-37.2	3.4	1.1	nt
Ecoli rRNA inh	-5.3	6.8	nt	8.2	7.1	0.3	1.9	nt
Ecoli rRNA inh OD600	-4.7	7.5	nt	14.1	2.8	4.0	-3.3	nt
Ecoli rRNA inh RFP	3.0	3.6	nt	0.2	-1.3	3.3	-2.3	nt
ALR inh	5.2	nt	-15.7	62.0	39.2	0.4	-7.6	nt
